KAT2A inh: qHTS Assay for Inhibitors of GCN5L2; Histone acetyltransferase KAT2A (Homo sapiens), Q92830; GCN5L2 HAT assay, ThioGlo1 CoA-SH fluorescence; Potency, µM (series often up to 58.9 µM), for the others: top-dose activity change, negative = inhibition, most hits filed as inhibitors; 390,000 tested, 0.21% active; AID 504327, 2011; active = well fitted inhibition curve with a large enough effect; inconclusive = small, poorly fitted or top-dose-only effect, or another doubt; inactive = no such curve, though single readings can be large or run the other way
Target sequence (Q92830 whole entry, looked up): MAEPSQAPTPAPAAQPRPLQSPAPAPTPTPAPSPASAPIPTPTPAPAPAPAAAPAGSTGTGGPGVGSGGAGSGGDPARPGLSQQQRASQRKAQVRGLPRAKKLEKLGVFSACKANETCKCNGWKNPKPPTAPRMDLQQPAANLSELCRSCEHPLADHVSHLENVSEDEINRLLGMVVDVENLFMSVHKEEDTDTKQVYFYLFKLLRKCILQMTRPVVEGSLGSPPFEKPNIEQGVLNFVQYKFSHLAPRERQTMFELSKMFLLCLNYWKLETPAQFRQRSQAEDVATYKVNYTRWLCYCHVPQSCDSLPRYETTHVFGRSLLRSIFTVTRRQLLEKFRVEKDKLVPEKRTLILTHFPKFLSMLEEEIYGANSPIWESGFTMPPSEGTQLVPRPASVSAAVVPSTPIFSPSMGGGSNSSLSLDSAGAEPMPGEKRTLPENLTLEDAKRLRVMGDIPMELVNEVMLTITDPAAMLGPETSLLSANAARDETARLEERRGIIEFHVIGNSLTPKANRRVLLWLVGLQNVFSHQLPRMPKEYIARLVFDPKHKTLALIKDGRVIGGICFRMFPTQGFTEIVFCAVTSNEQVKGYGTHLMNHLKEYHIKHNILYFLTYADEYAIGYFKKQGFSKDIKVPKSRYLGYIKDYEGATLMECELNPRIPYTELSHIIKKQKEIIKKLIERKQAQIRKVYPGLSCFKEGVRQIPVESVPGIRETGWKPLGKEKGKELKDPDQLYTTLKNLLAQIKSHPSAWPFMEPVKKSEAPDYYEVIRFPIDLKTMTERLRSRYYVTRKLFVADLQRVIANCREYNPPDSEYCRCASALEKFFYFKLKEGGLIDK
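Free CoA generated was detected with ThioGlo1 (50uM) fluorescence at Ex340nm/Em540nm, read immediately and after 20 min at room temperature. Enzyme, 20 nM in HEPES pH 7.5 buffer, saw compounds 15 min before adding 75uM H3(1-25) peptide and 70uM acetyl-CoA.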
Active calls of the source: *; ? = inconclusive; & = joins results of further samples. % is set by controls: 0 for no effect and ±100 for the full control effect; potency is the fitted concentration of half-maximal effect.

KAT2A inh	structure
-5%	Cc1[nH]c2ccc(C(=O)OC(C)C(=O)N(C)c3ccccc3)cc2c1C (configuration not stated)
-20%	Cc1ccc(Nc2ncc(C(=O)N3CCN(c4cccc(Cl)c4)CC3)c3ccccc23)cc1Cl
-16%	Cc1ccc(NC(=O)c2cccc(Oc3ccc([N+](=O)[O-])cc3)c2)c(C(=O)O)c1
14%	C=CCn1c(C)cc(C)c(C#N)c1=O
-3%	Cc1nc2cc(N3CCCCC3)c(NC(=O)c3ccncc3)cc2c(=O)n1Cc1ccccc1
-12%	CCOC(=O)COc1cc(-n2c(=S)[nH]c3ccccc3c2=O)c(Cl)cc1Cl
-4%&-17%	CCN(Cc1ccccc1)C(=O)CCNS(=O)(=O)c1ccc2c(c1)CC(C)N2C(C)=O (configuration not stated)
-13%	O=C(CCn1nnc(-c2cccs2)n1)N1CCc2ccccc2C1
2%	COc1ccc(OCc2cc(C(=O)N(C)Cc3nccn3C)no2)c2ccccc12
0%	C=CCn1c(SCc2cc(=O)n3cc(C)ccc3n2)nnc1-c1cccc(C)c1
-1%	CCOC(=O)C1(Cc2ccccc2)CCN(Cc2ccc(C3CCCCO3)s2)CC1 (configuration not stated)
1%	CC1(c2ccccc2)NC(=O)N(CC(=O)N(c2ccccc2)C2CCS(=O)(=O)C2)C1=O (configuration not stated)
-2%	O=C(NCCSc1c[nH]c2ccccc12)C1CC1
-5%	O=C(c1cccc(COc2cccc3ccccc23)c1)N1CCCC1
-15%	CCCCN1CN(S(=O)(=O)c2ccc(OC)cc2)c2nc3ccccc3nc21
-6%	Cc1ccc(Cl)cc1NC(=O)CSC1=Nc2ccccc2C2=NC(Cc3ccccc3)C(=O)N12 (configuration not stated)
0%	O=C(NC(c1ccccc1)c1ccccc1)N1CCOCC1
-3%	CC1CCN(C(=O)CN2C(=O)C(=O)c3ccccc32)CC1
2%	CC(=O)OCC(=O)C1(O)CCC2C3CCC4=CC(=O)C=CC4(C)C3C(O)CC21C (configuration not stated)
-1%	COc1cc2c(=O)c(S(=O)(=O)c3ccc(F)cc3)cn(Cc3ccc(Cl)cc3)c2cc1OC

KAT2A inh	structure
-3%	CNc1ccccc1C(C)(C)c1cc(-c2ccco2)n[nH]1
0%	CCn1c(SCC(=O)NCc2ccc(F)cc2)nc2c(c1=O)SC(C)C2 (configuration not stated)
0%	COc1cc(/C=N/N2CCN(c3ccccc3)CC2)ccc1OC(C)=O
0%	Cc1ccc(OCCn2c(NC(=O)c3ccco3)nc3ccccc32)cc1
-8%	Cc1ccc(C)c(OCCC(=O)Nc2cccc(S(=O)(=O)N3CCCCC3)c2)c1
-5%	Cc1cc(=O)oc2cc(OC(=O)CCCCCN3C(=O)c4ccccc4C3=O)ccc12
2%	Cc1ccc(-n2nnc3c(SCC(=O)NCc4ccco4)ncnc32)cc1
-1%	CCCCNc1cc(Cl)nc(N)n1
-3%	CCCCCCCC(=O)Nc1cc(C(=O)NCCC)ccc1N1CCC2(CC1)CC(c1cccc(Br)c1)=NO2
1%	CCOC(=O)c1ccc(NC(=O)c2ncn(-c3ccccc3)n2)cc1
-4%	CCc1cc2cc3c(cc2nc1SCC(=O)OC(C)C)OCO3
-5%	CC(C)Cn1c(N)c(C(=O)COC(=O)c2cc3ccccc3cc2O)c(=O)n(C)c1=O
-5%	CCN1CCN(c2ccc(S(=O)(=O)N3CCCCC3)cc2NC(=O)Cc2ccc(Cl)c(Cl)c2)CC1
-3%&-6%	CC(=O)Nc1ccc(S(=O)(=O)NCC2CCC(C(=O)NCc3ccccc3)CC2)cc1 (configuration not stated)
-9%	COc1ccc(CNC(=O)CN(c2ccccc2OC)S(=O)(=O)c2ccc(C)cc2)cc1
-3%	Cc1nnc(NC(=O)CSc2nnc3ncccn23)s1
8%	COCCNC(=S)N1CCC(c2nc(-c3ccc(F)cc3)no2)CC1
-4%	CN(CCO)C1=NS(=O)(=O)c2cc([N+](=O)[O-])ccc21
1%	Cn1c(CCCOc2ccc(Cl)cc2Cl)nnc1SCC(=O)Nc1ccc(F)c(Cl)c1
2%	Cc1ccc2nc(C(=O)O)c(C(=O)O)nc2c1

3 compounds from above, arranged by the number in KAT2A inh, smallest number first.
mol	KAT2A inh
CCCCNc1cc(Cl)nc(N)n1	-1%
Cc1ccc(OCCn2c(NC(=O)c3ccco3)nc3ccccc32)cc1	0%
COCCNC(=S)N1CCC(c2nc(-c3ccc(F)cc3)no2)CC1	8%

The main list resumes; the 4 compounds before the break are reprinted first.
KAT2A inh	structure
8%	COCCNC(=S)N1CCC(c2nc(-c3ccc(F)cc3)no2)CC1
-4%	CN(CCO)C1=NS(=O)(=O)c2cc([N+](=O)[O-])ccc21
1%	Cn1c(CCCOc2ccc(Cl)cc2Cl)nnc1SCC(=O)Nc1ccc(F)c(Cl)c1
2%	Cc1ccc2nc(C(=O)O)c(C(=O)O)nc2c1
-1%	C=CCC(C#Cc1ccccc1)[N+](C)(C)CC=C (configuration not stated)
1%	CC(=O)Nc1ccc(Oc2cc(N)cc([N+](=O)[O-])c2)cc1
-7%	CCOC(=O)Cc1ccc(NC(=O)n2ncc3c(C)cccc32)cc1
-16%	CCOC(=O)C1=CN(Cc2cccc(-c3ccc(F)cc3)c2)S(=O)(=O)N(C)C1C (configuration not stated)
-5%	Cc1ccc(Cl)cc1NC(=O)C1CCCCC1C(=O)O (configuration not stated)
-5%	Cc1onc(-c2ccccc2)c1C(=O)Nc1ccccc1C#N
-2%	CCCCNC(=O)CC1N=C2c3ccccc3N=C(SCC(=O)Nc3cccc(C)c3)N2C1=O (configuration not stated)
-7%	CC(C)[C@H](NC(=O)c1ccco1)C(=O)NCc1ccccc1
-4%	COc1ccc(NC(=O)C2CCCN(S(=O)(=O)c3cccnc3)C2)cc1OC (configuration not stated)
2%	CC(=O)CC(c1ccccc1)S(=O)(=O)c1ccc(C)cc1 (configuration not stated)
-6%	CCc1ccc2c(CN3CCN(S(=O)(=O)c4cccs4)CC3)cc(=O)oc2c1
-8%	CCOc1ccc(NS(=O)(=O)c2ccc(OC)c(NC(=O)c3ccc4c(c3)OCCO4)c2)cc1
25%	Cc1cc(C)c[n+](C2=C([O-])c3ccccc3C(=O)/C2=N\S(=O)(=O)c2cccs2)c1
-14%	N#CCC(=O)Nc1ccc(C(=O)OCC(=O)N(Cc2ccccc2)C2CCS(=O)(=O)C2)cc1 (configuration not stated)
-2%	CCn1c(SC)nc(O)c(C(c2ccc(OC)c(O)c2)c2c(O)nc(SC)n(CC)c2=O)c1=O
-5%	O=C(CN1CCOCC1)c1c[nH]c2ccccc12
-4%	Cc1ccc(C)c(OCC(=O)Nc2cccc(C(=O)O)c2)c1C
-12%	COC(=O)c1cn(Nc2ncc(C(F)(F)F)cc2Cl)c(=O)c2ccccc12
-7%	O=C(NCCc1c[nH]c2ccccc12)c1cc2ccccc2oc1=O
0%	CCOc1cc(N2CCOCC2)c(OCC)cc1NC(=O)COC(=O)c1cc(C)cc(C)c1

KAT2A inh	structure
-6%	COc1cccc(C(=O)Nc2cccc(S(=O)(=O)NC3=NCCC3)c2)c1
-5%	C=C1SC(=Nc2c(C)cccc2Cl)N(C(=O)c2sc3ccccc3c2Cl)C12CCCCC2
0%	O=C(O)CC(NC(=O)c1ccccc1NC(=O)c1ccccc1)C(=O)O (configuration not stated)
0%	COc1ccc(CN(C(=O)CN2C(=O)c3ccccc3S2(=O)=O)C(C(=O)NCC2CCCO2)c2ccncc2)cc1 (configuration not stated)
-6%	C(=N\NC1=Nc2cccc3cccc1c23)/c1cccnc1
-6%	Cc1cc(C(=O)COC(=O)Cc2n[nH]c(=O)c3ccccc23)c(C)n1-c1ccc2c(c1)OCCO2
3%	CCOC(=O)NC1c2ccccc2Oc2ccccc21
-5%	O=C(CNC(=S)N(Cc1ccccc1Cl)C1CCCC1)NCCCN1CCOCC1
0%	CCC(=O)c1cc(F)c(N2CCN(S(=O)(=O)c3ccccc3)CC2)cc1C
-3%	O=C(COC(=O)Cc1cccc(F)c1)NCCc1ccccc1
-4%	CCc1cccc(NC(=O)CCS(=O)(=O)c2cc(Br)cc3c2N(C(C)=O)CC3)c1
-8%	Cc1ccc(S(=O)(=O)N2C(=O)CCC2C(=O)O/N=C(\N)c2ccc([N+](=O)[O-])cc2)cc1 (configuration not stated)
-10%	CCCCn1nnc(NC(=O)c2ccco2)n1
-3%	COc1ccc(/C=C/C(=O)O)cc1COc1cccc(C)c1
0%	C=CCN=C1SC(CC)C(=O)N1S(=O)(=O)c1ccc(C)cc1 (configuration not stated)
2%	Cc1cc(C)c(S(=O)(=O)Nc2ccc(-c3ccc(N4CCC(C)CC4)nn3)cc2)cc1C
1%	COc1ccc(CN(C)C(=O)c2cnc(OC)cc2C(F)(F)F)c(OC)c1
-14%	CCCn1c(SCC(=O)c2ccc3c(c2)OCCO3)n[nH]c1=O
0%	COCCn1cnnc1SCC(=O)Nc1ccc(N2CCCCC2)cc1
2%	O=C(NCC(=O)N(CCN1CCOCC1)C(C(=O)NC1CCCC1)c1cccs1)c1ccco1 (configuration not stated)

KAT2A inh	structure
-16%	O=C(Nc1ccc(C(=O)NC2CCCCC2)cc1)c1cccnc1
0%	Cc1c2cnn(-c3ccccc3)c(=O)c2c(C)n1CC(=O)NCc1ccccc1Br
0%	N/C(CS(=O)(=O)c1ccc(F)cc1)=N\O
-8%	COc1ccc(NC(=O)CSc2nnc(-c3cccs3)n2N)cc1S(N)(=O)=O
-1%	COC(=O)c1cc2sc(Cl)cc2n1CC(=O)Nc1cc(OC)cc(OC)c1
-8%	CCOC(C)OCC
-4%	O=C(COC(=O)c1ccc([N+](=O)[O-])cc1Cl)Nc1cccnc1Cl
-1%	O=C(Nc1sc(-c2ccccc2)cc1C(=O)O)c1ccccc1
-7%	CCOc1ccc(NC(=O)c2c(C)oc3nc(C)nc(N4CCOCC4)c23)cc1
-14%	CCOC(=O)C1CCCN(C(=O)c2sc3nc(-c4ccc(OC)cc4)cn3c2C)C1 (configuration not stated)
?	O=C(c1cccs1)N1CCN(C(=O)C(c2ccccc2)c2ccccc2)CC1
-7%	O=S(=O)(NC1=NCCC1)c1cccc(NS(=O)(=O)c2ccc(F)c(Cl)c2)c1
1%	CC(C)Oc1ccc(CNC(=S)N/N=C/c2ccc([N+](=O)[O-])cc2)cc1
-1%	COc1cc(NC(=O)C2=C(N3CCOCC3)/C(=C\c3ccc(Br)cc3)CC2)cc(OC)c1OC
2%	O=C1NCCCC1C(=O)Nc1ccccc1C(F)(F)F (configuration not stated)
-25%	CC1=C(C(=O)Nc2ccc(Cl)cc2C(=O)N2CCC(C(N)=O)CC2)SCCO1
-6%	CCCCOc1cccc(C(=O)Nc2cc3nn(-c4ccc(F)cc4)nc3cc2C)c1
-5%	COc1ccc2nc(/C=N/NC(=O)CCNC(=O)OC(C)(C)C)ccc2c1
-15%	COc1ccc(CN2CCN(CCCCOc3ccc(Cl)cc3)CC2)c(OC)c1OC
-1%	Cn1nc(C(=O)NC2CCCCC2)c2c1-c1ccccc1S(=O)(=O)C2

KAT2A inh	structure
-1%	COc1ccccc1CNCC(=O)NCc1ccc(C)cc1
-2%	CCN(CC)C(=O)c1sc2c(c1C)c(=O)n(-c1ccc(OC)cc1OC)c(=O)n2CC(=O)c1ccc(Cl)cc1
2%	CC(C)(ONC(=O)Nc1ccccc1Cl)C(=O)O
?	O=C(NCCOc1ccc(F)cc1)C1CCC(=O)N(CCN2CCOCC2)C1 (configuration not stated)
0%	Cc1ccccc1OCc1nnc2n1CC(C)S2 (configuration not stated)
-1%	COc1ccc(NC(=O)CS(=O)(=O)c2cn(CC(=O)N3CCCC3)c3ccccc23)c(OC)c1
-5%	O=C(NC1CCN(C(=O)Nc2cccc(Cl)c2)CC1)c1ccco1
1%	CC/S(C)=N/S(=O)(=O)c1ccc(C)cc1 (configuration not stated)
-8%	Cc1noc(C)c1COc1cccc(C(=O)Nc2cccnc2)c1
-6%	COC(=O)c1[nH]c2cc(OC)ccc2c1NC(=O)CCN1CCCC(C)(C)C1
-8%	CCO[C@@H]1OC(C(=O)NCc2ccccc2)=C[C@H](c2ccc(C(F)(F)F)cc2)[C@H]1CCCO
3%	CCOC(=O)c1[nH]c2ccc(F)cc2c1NC(=O)CCN1CCSCC1
-5%	O=C(COc1ccc(S(=O)(=O)N2CCCC2)cc1)NCc1ccco1
0%	Cc1c(NC(=O)COC(=O)C2CC3C=CC2C3)c(=O)n(-c2ccccc2)n1C (configuration not stated)
2%	C/C(Cn1nnc([N+](=O)[O-])n1)=N\NC(=O)c1ccccc1
1%	CCCCN(C)C(=S)Nc1ccc2nc(N3CCN(CC)CC3)cc(C)c2c1
3%	COc1cc(-c2nc(Cn3nnc(C(=O)Nc4cccc(Cl)c4)c3C)c(C)o2)cc(OC)c1OC
-3%	C=CCOc1c(Br)cc(CNc2nccs2)cc1OC
-1%	CSc1ccc(C2c3c(oc4ccc(F)cc4c3=O)C(=O)N2c2ccc(C)cn2)cc1 (configuration not stated)
-8%	CC1=C(C(=O)OCc2ccc(C)cc2)C(c2cccc(F)c2F)CC(=O)N1 (configuration not stated)
?	CCN(CC)S(=O)(=O)c1ccc(OC)c(NC(=O)COc2ccccc2[N+](=O)[O-])c1

6 entries already listed, ordered by molecular weight, smallest number first.
KAT2A inh	structure
-1%	C=CCC(C#Cc1ccccc1)[N+](C)(C)CC=C (configuration not stated)
-6%	COC(=O)c1[nH]c2cc(OC)ccc2c1NC(=O)CCN1CCCC(C)(C)C1
0%	C=CCn1c(SCc2cc(=O)n3cc(C)ccc3n2)nnc1-c1cccc(C)c1
-3%&-6%	CC(=O)Nc1ccc(S(=O)(=O)NCC2CCC(C(=O)NCc3ccccc3)CC2)cc1 (configuration not stated)
-5%	O=C(CNC(=S)N(Cc1ccccc1Cl)C1CCCC1)NCCCN1CCOCC1
0%	CCOc1cc(N2CCOCC2)c(OCC)cc1NC(=O)COC(=O)c1cc(C)cc(C)c1

Assay outcomes (PubChem BioAssay)

Some of the compounds tested; most or all hits stand in other tables.
